# GIV-Gai inh: inhibitors of GIV peptide binding to Galpha-i3, primary screen, biochemical, fluorescence polarization, FITC-GIV GBA peptide, rat Galphai3 | Guanine nucleotide-binding protein G(i) subunit alpha-3 (Rattus norvegicus), P08753 | 90 min; stronger effect = lower value; scaled: aluminum fluoride 0%, vehicle 100% | percent of control (FP), % (test concentration not listed) | 0.42% of 210,000 active;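 active = replicate mean at 85% of control or lower, very high polarization wells dropped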;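 also: wells of about 15 µL received 100 nL stock; the first replicate is given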
# Target sequence (P08753 whole entry, looked up): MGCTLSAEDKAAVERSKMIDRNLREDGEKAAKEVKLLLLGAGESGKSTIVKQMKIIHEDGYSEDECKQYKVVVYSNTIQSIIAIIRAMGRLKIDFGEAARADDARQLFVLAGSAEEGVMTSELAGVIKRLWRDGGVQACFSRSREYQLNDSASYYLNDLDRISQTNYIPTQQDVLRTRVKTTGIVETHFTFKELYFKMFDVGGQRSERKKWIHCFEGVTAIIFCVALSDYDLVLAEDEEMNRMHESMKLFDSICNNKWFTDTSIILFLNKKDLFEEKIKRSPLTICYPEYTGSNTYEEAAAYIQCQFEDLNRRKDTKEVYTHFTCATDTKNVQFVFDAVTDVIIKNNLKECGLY
# HCMV UL50-53 inh: inhibitors of HCMV UL50-UL53 interaction, biochemical, HTRF. normalized percent inhibition. inhibition, % (test concentration not listed). HCMV UL50-UL53 nuclear egress complex (human cytomegalovirus). 0.15% of 190,000 active;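 active = both replicates at 50% or more, plus weaker picks with an unusually low signal ratio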;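 also: stock transfer was 100 nL into about 20 µL; 0% = negative control wells and 100% = wells with untagged competitor protein; inactives centre near -12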
# Sa growth inh: S. aureus growth inhibition at 42 and 30 °C, primary screen, LtaS inhibitor project, RN4220, two temperatures | OD600, 20 h, 42 °C; stronger effect = lower value | relative growth, % (no concentration beside the values) | 0.53% of 170,000 active | AID 720641, 2013;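 active = growth at 42 °C up to 50% and 20 or more points under that at 30 °C, or under 10% at both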;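 also: 300 nL library stock went into each well; scaled to the means of positive and negative controls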
# Sa growth inh second temp: further read-out of Sa growth inh, marked with its call; relative growth, %; measured here: growth at 30 °C;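 optical density after 20 h as mean of two plates; 100% = untreated growth and lower means inhibition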
# * = called active by the depositor; . = no result given; & = joins results of further samples.
SMILES,GIV-Gai inh,HCMV UL50-53 inh,Sa growth inh,Sa growth inh second temp
CCc1ccc(Sc2cc(C(=O)NCc3cccc(OC)c3)c3ccccc3n2)cc1,100,.,128,90
CCOC(=O)N1C(=O)c2cc(OC)ccc2S1(=O)=O,106,-8,.,.
COc1cccc(COC(=O)c2ccc(-c3nnn(Cc4ccccc4)n3)cc2)c1,106,8,96,100
Cc1ccc(Cl)cc1-n1nnc(-c2nc(-c3ccccc3)no2)c1C,102,-23,.,.
COCc1cc(C)nc2sc(C(=O)OC)c(N)c12,.,-64,112,82
CCCCNC(=O)c1cc2cc(CC)ccc2[nH]1,117,-10,100,96
C=CCN1C(=O)C2(NC(=O)c3ccccc3N2)c2ccccc21 (stereo unspecified),98,-28,105,84
CC(C)(C)OC(=O)/N=C(\N)n1cccn1,97,.,93,88
O=C(C1CCCN(S(=O)(=O)c2cccc3nsnc23)C1)N1CCN(c2ccccn2)CC1 (stereo unspecified),96,-85,.,.
Cc1cc(C)c2c(n1)sc1c(SCC(=O)c3ccc(Br)cc3)ncnc12,101,-39,103,88
Cc1ccc(C)c(NC(=O)N2CCc3cc(S(=O)(=O)N4CCC(C)CC4)ccc32)c1,105,-12,105,97
CCN(CC)C(=O)c1cn(CCC#N)nc1-c1ccc2ccccc2c1,104,.,119,93
CCOC(=O)C1=C(C)N=c2s/c(=C\c3cc([N+](=O)[O-])ccc3N3CCOCC3)c(=O)n2C1c1ccc(N(C)C)cc1 (stereo unspecified),113,10,.,.
CNC(=O)c1[nH]nc2c1CCc1ccccc1-2,96,-18,97,79
Cc1cc(C)n(CCO)c(=O)n1,98,-8,80,95
CCc1nc(N)nc(N)c1-c1ccc(Cl)cc1,.,-41&2&-53&-27,82,56
O=C(NC1CCCc2ccccc21)C1=NN(c2ccccc2)C(=O)CC1 (stereo unspecified),.,-5,96,75
Cc1ccc(CNC(=O)Cn2c3ncccc3c(=O)n2-c2ccccc2)cc1,109,.,92,85
CCNC(=O)CCSc1nnc(-c2ccc(O)cc2)o1,100,-27,101,86
Cc1cc(C)cc(C(=O)Nc2ncn[nH]2)c1,.,-4,93,86
O=c1cc(O)nc(SCc2c(F)cccc2Cl)n1C1CCCC1,.,-13,91,39
CCCNC(=O)c1ccc(SC)cc1OC,102,-33,100,97
O=C(O)c1ccccc1C(=O)c1cc(Cl)ccc1Cl,.,10,99,102
COc1cc2c(cc1OC)CN(C(=O)C(C)(C)C)CC2,98,-16,93,79
O=C1CN(c2ccccc2)C(=S)N1/N=C/c1ccc(F)cc1,.,-25,96,88

# An excerpt from above in order of length of the SMILES, high to low.
SMILES,GIV-Gai inh,HCMV UL50-53 inh,Sa growth inh,Sa growth inh second temp
CCOC(=O)C1=C(C)N=c2s/c(=C\c3cc([N+](=O)[O-])ccc3N3CCOCC3)c(=O)n2C1c1ccc(N(C)C)cc1 (stereo unspecified),113,10,.,.
O=C(C1CCCN(S(=O)(=O)c2cccc3nsnc23)C1)N1CCN(c2ccccn2)CC1 (stereo unspecified),96,-85,.,.
CCc1ccc(Sc2cc(C(=O)NCc3cccc(OC)c3)c3ccccc3n2)cc1,100,.,128,90
Cc1ccc(CNC(=O)Cn2c3ncccc3c(=O)n2-c2ccccc2)cc1,109,.,92,85
Cc1ccc(Cl)cc1-n1nnc(-c2nc(-c3ccccc3)no2)c1C,102,-23,.,.
O=C1CN(c2ccccc2)C(=S)N1/N=C/c1ccc(F)cc1,.,-25,96,88
CCOC(=O)N1C(=O)c2cc(OC)ccc2S1(=O)=O,106,-8,.,.
O=C(O)c1ccccc1C(=O)c1cc(Cl)ccc1Cl,.,10,99,102
CCNC(=O)CCSc1nnc(-c2ccc(O)cc2)o1,100,-27,101,86
COCc1cc(C)nc2sc(C(=O)OC)c(N)c12,.,-64,112,82
CNC(=O)c1[nH]nc2c1CCc1ccccc1-2,96,-18,97,79
CC(C)(C)OC(=O)/N=C(\N)n1cccn1,97,.,93,88
Cc1cc(C)n(CCO)c(=O)n1,98,-8,80,95

# (list continues)
SMILES,GIV-Gai inh,HCMV UL50-53 inh,Sa growth inh,Sa growth inh second temp
Clc1cccc(-c2ccc(SCc3nc(-c4ccc5c(c4)OCO5)no3)nn2)c1,111,-2,.,.
O=C(c1ccc(NC(=O)N2CCCCc3ccccc32)cc1)N1CCN(c2ncccn2)CC1,102,-6,.,.
CCC(Sc1nnc(-c2ccccc2NC(C)=O)c(=O)[nH]1)C(=O)Nc1ccc2c(c1)OCCO2 (stereo unspecified),100,0,.,.
Cc1cc(C)cc(NC(=O)c2sc3nc(-c4ccccc4)cn3c2C)c1,104,.,108,106
COC(=O)C(C)(N)Cc1ccc(O)cc1 (stereo unspecified),101&104,-4&-23,114,96
O=S(=O)(c1ccc(S(=O)(=O)C(F)(F)F)cc1)C(F)(F)F,106,-15,93,74
COC(=O)c1sccc1NC(=O)c1nc(-c2ccc(Cl)cc2)n2c1CCCCC2,107,2,91,103
CCOc1ccc(NC(=O)COc2ncnc3ccccc23)cc1,.,-20,93,91
CCOC(=O)/C=C(\C)N1CCN(c2ccccc2)CC1,.,-20,100,94
C/C(=N/NC(=O)c1ccoc1C)c1ccc(NC(=O)c2ccco2)cc1,105,-12,114,111
Cn1c(=O)oc2cc(S(=O)(=O)NC(Cc3ccccc3)C(=O)Nc3ccc(F)cc3)ccc21 (stereo unspecified),99,-30,107,82
CONC(=O)Nc1ccc(C)cc1,101,-6,97,92
CC(C)N(CCc1ccncc1)C(=S)NCC1CCCO1 (stereo unspecified),107,.,77,84
CCOc1ccc(NC(=O)Cn2c(=O)oc3cc(S(=O)(=O)N4CCCCCC4)ccc32)cc1,100,.,141,75
COc1cc(NC(=O)C2CCN(c3cnc4ccccc4n3)CC2)cc(OC)c1OC,101,.,81,88
CCC(C)N1CC(=O)N(c2ccc(Cl)cc2)[C@@H]2CS(=O)(=O)C[C@@H]21 (stereo partly specified),102,-10,.,.
O=C(Cn1c(=O)c2sccc2n2c(=S)sc(-c3ccccc3)c12)OCc1ccccc1,121,-13,.,.
CCC(=O)Nc1nc2nc(-c3ccccc3)cc(=O)n2[nH]1,102,5,83,90
CCOC(=O)CC(Sc1ccccc1N)c1cc(OC)c(OC)c(OC)c1 (stereo unspecified),106,2,106,95
CSc1cccc(NC(=O)CC#N)c1,109,-8,107,98
Cc1cc(S(=O)(=O)Nc2cc3c(cc2Oc2ccccc2)n(C)c(=O)c(=O)n3C)ccc1F,99,-20,.,.
COc1ccc2c(c1)c1c(c(=O)n(-c3ccc(C)cc3)c(=O)n1CC(=O)NCC1CCCO1)n2C (stereo unspecified),107,-33,105,84
Cc1cc(C)nc(NC(=O)Nc2cccc(Cl)c2)n1,103,5,.,.
COc1ccc(OC)c(CNC(=O)CCC(=O)N2Cc3cccc(OC)c3Oc3ncccc32)c1,107,-6,.,.
O=C(CCC(=O)c1ccccc1)Nc1ccc(F)c(Cl)c1,107,.,114,90
# Next section:
SMILES,GIV-Gai inh,HCMV UL50-53 inh,Sa growth inh,Sa growth inh second temp
COc1ccc(-c2occ(C(=O)O)c2C(=O)O)cc1,99,2,101,81
CCOC(=O)c1ccccc1NC1OC(=O)c2ccccc21 (stereo unspecified),103,-12,93,81
COC(=O)C1=C(C)NC2=C(C(=O)CCC2)C1c1ccccc1N1CCOCC1 (stereo unspecified),102,2,111,89
CCN(CC(=O)NCc1cccs1)C(=O)c1cc2c(s1)CCCC2,.,8,136,106
c1ccc(CCNc2ncnc3c(-c4ccccc4)noc23)cc1,107,0,.,.
C=CCNC(=O)c1cc2c(=O)n3ccccc3nc2n(CCC)c1=N,98,.,85,88
CC1CCCCN1c1csc2ccc(F)cc2c1=O (stereo unspecified),107,.,102,79
Cc1ccc2ncc(C(=O)N3CCN(c4ccccc4F)CC3)c(=O)n2c1,97,-25,95,89
CCOc1ccccc1NC(=O)C(Cc1ccccc1)NS(=O)(=O)c1ccc2c(c1)oc(=O)n2C (stereo unspecified),99,-27,90,91
COc1ccc(NC(=O)Cn2c(=O)n(CCCCCC(=O)NCc3ccc4c(c3)OCO4)c(=O)c3sccc32)cc1Cl,103,-3,105,95
Cc1c(-c2ccc(Cl)cc2)c(=O)oc2ccc(OC(=O)N3CCOCC3)cc12,93,.,103,83
CC(CNC(=O)Cc1ccc(NC(=O)N2CCSc3ncccc32)cc1)c1ccccc1 (stereo unspecified),103,.,105,90
C=Cc1ccc(CSc2nc3c(-c4ccccc4)cn(C)c3c(=O)n2CCCOC)cc1,97,-32,.,.
COC(CNC(=O)c1ccc2c(c1)N(Cc1ccccc1F)C(=O)c1ccccc1S2=O)OC (stereo unspecified),101,.,93,90
CC(C)(C)c1cc2ncnc(NC3CCN(Cc4ccccc4)CC3)c2s1,106,19,113,98
CCOc1ccc(NC(=O)c2cc(S(=O)(=O)N3CCCCC3)c[nH]2)cc1,105,.,104,99
COc1ccc(-c2ccc(=O)n(CC(=O)Nc3ccccc3C(F)(F)F)n2)cc1,101,.,104,87
CCc1ccc(CNC(=O)c2ccc3c(c2)nc2n3CCOC2)cc1,109,.,107,98
COc1cc(Cl)c(C)cc1Nc1ncnc2c1nc1n2CCCC1,108,.,122,89
C/C=C/c1ccc(OC)c(OC(C)=O)c1,107,0,101,109
CCCN(CCC)C(=O)Cn1c(=O)oc2cc(S(=O)(=O)N3CC(C)CC(C)C3)ccc21 (stereo unspecified),102,.,102,91
Cc1ccc(N(CC(=O)NCCc2ccc(Cl)cc2)S(=O)(=O)c2c(C)noc2C)cc1,103,14,99,97
Cc1cc(C)c2c(CC(=O)Nc3nnc(CC(C)C)s3)coc2c1,104,-17,105,82
Cc1ccc(S(=O)(=O)Nc2ccccc2-c2nnc(-c3ccc(Cl)cc3)o2)cc1,104,-29,88,87
N#Cc1ccccc1CSC1=NCCS1,.,7,71,94
# The list goes on.
SMILES,GIV-Gai inh,HCMV UL50-53 inh,Sa growth inh,Sa growth inh second temp
COc1cc(C(F)(F)F)cc(C(F)(F)F)c1C(N)=O,102,-4,104,74
CCc1ccccc1NC(=O)Cn1c(=O)n(-c2ccc(CC(=O)NCC3CCCO3)cc2)c(=O)c2ccccc21 (stereo unspecified),105,-56,95,88
CSc1nc2cc(-c3ccccc3)nn2c(N)c1S(=O)(=O)C(C)C,103,-10,63,54
CCOc1ccccc1NC(=O)C(CC)n1c(C(=O)OC)cc2occc21 (stereo unspecified),103,-5,119,94
CCOc1ccc(NC(=O)Cn2nnc(C(=O)OC)c2C(=O)OC)cc1,99,-5,104,93
N#CC1=C(N)OC2=C(C(=O)CC(c3ccccc3)C2)C1c1ccc([N+](=O)[O-])s1 (stereo unspecified),99,-17,.,.
Cc1cc(C)cc(C(=O)Nn2cnnc2)c1,109,7,96,100
Cc1ccccc1NC(=O)Cn1cc(C(=O)c2ccco2)c2ccccc21,95,-33,89,76
C=C(C)CC1C(=O)N(S(=O)(=O)c2ccc(Cl)cc2)N=C1C (stereo unspecified),106,-26,83,81
CC(=O)Nc1ccc(Cl)cc1C(=O)O,.,2,95,88
COc1nc(N(C)C)nc(N(C#N)CN2C(=O)c3ccccc3S2(=O)=O)n1,103,9,98,117
CCC(=O)Nc1ccccc1C(=O)N1CCCC1,107,8,104,96
CN1c2ccc(Cl)cc2-c2nc(SCC(=O)NCc3ccc(F)cc3)ncc2S1(=O)=O,104,.,109,101
CCOC(=O)C1CCC(CNC(=O)N2CCCC2c2ccc(C)cc2)CC1 (stereo unspecified),100,-38,.,.
CC(c1ccco1)N(C(=O)c1ccccc1F)c1ccccn1 (stereo unspecified),.,-2,109,92
CC1CCN(C(=O)c2cccc(-c3nnc(-c4ccccc4)o3)c2)CC1,109,-32,101,88
c1nc(N2CCCCC2)c2nc3n(c2n1)CCCCC3,109,-2,.,.
CCOC(=O)c1c(C)n(-c2ccccc2)c2c1cc(OC(=O)c1ccc([N+](=O)[O-])cc1)c1ccccc12,104,-20,.,.
Cc1ccc(C(=O)N(C)c2ccc(OCC(=O)N(C)C3CCN(C)CC3)cc2)cc1,.,-22,120,87
CCOCCCn1c(=N)c(C(=O)NCC2CCCO2)cc2c(=O)n3cc(C)ccc3nc21 (stereo unspecified),107,-109,105,94
Cc1cccc(-c2noc(CNC(=O)c3ccc(C)cc3C)n2)c1,113,-2,124,85
COC(CN(C(C)=O)C1CCCc2c1[nH]c1ccc(C)cc21)OC (stereo unspecified),108,.,103,80
NC(=O)C1CCCN1c1nc(-c2cccs2)nc2ccccc12 (stereo unspecified),.,-36,102,101
O=S(=O)(Cc1cccc(C(F)(F)F)c1)NCc1cccs1,102,-4,100,94
COc1cc(CN(C(=O)c2ccccc2Br)c2ccccn2)cc(OC)c1OC,106,-3,107,82
# Next section:
SMILES,GIV-Gai inh,HCMV UL50-53 inh,Sa growth inh,Sa growth inh second temp
O=C(O)C1C2C=CC(C2)C1C(=O)NCc1cccs1 (stereo unspecified),101,-23,72,103
COc1cccc(OC)c1C(=O)Nc1cccc(-c2nc3cc(C)cc(C)c3o2)c1,106,-14,117,91
O=C(COc1ccc(F)cc1)Nc1nnc(S(=O)(=O)N2CCCC2)s1,103,0,98,87
CCOC(=O)C1CCCN(S(=O)(=O)c2cc(-c3cc(C)no3)ccc2OC)C1 (stereo unspecified),98,.,118,88
CC(C)CN(Cc1c(O)ccc2c(=O)c(-c3ccccc3)coc12)CC(C)C,.,-8,82,88
OC(CCN1CCOCC1)c1ccccc1 (stereo unspecified),101,0,105,101

# Screening results from PubChem BioAssay.
